# Source: PubChem
# NOMO-1 viab = NOMO-1 AML cell viability reduction, primary screen, STK33 inhibitor project, CellTiter-Glo luminescence; NOMO-1 AML viability, 72 h; inhibition, % (no concentration beside the values); actives 7.5% (n = 37,000); AID 2330, 2010;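 active = most replicates above 80%; inconclusive = exactly half above 80%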;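 also: wells of about 30 µL received 25 nL stock; 0% = median of vehicle wells and 100% = reference inhibitor level; the first replicate is given; inactives centre near 10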
# * marks the source's active call; other numbers are inactive results; ? = inconclusive. These rows are one share of the data (hit frequency here may not be typical).
SMILES,NOMO-1 viab
Cc1noc(C)c1S(=O)(=O)Nc1ccc2c(c1)C(=O)N([C@H](C)CO)C[C@H](C)[C@@H](CN(C)S(=O)(=O)c1c(C)noc1C)OCCCC[C@@H](C)O2,22
CNC[C@H]1Oc2ccc(NS(=O)(=O)c3ccc(C)cc3)cc2C(=O)N([C@@H](C)CO)C[C@@H]1C,3
COc1ccc(OC)c(C(=O)CSc2nnc(-c3ccccn3)n2-c2ccc(C)cc2)c1,0
Cc1cccc(OCCCn2c(CO)nc3ccccc32)c1,19
C[C@@H]1CCCCO[C@@H](CN(C)S(=O)(=O)c2ccc(F)cc2)[C@@H](C)CN([C@H](C)CO)C(=O)c2cc(NS(=O)(=O)c3ccc(F)cc3)ccc2O1,68
O=C(CSc1n[nH]c(-c2ccccc2)n1)Nc1ccc(F)cc1,40
O=[N+]([O-])c1ccc(NCCNC(=S)Nc2ccc(Cl)cc2)nc1,42
COc1ccc(/C=C/C(=O)O[C@H]2[C@H](OC3C4O[C@]4(CO)[C@H]4C(O[C@@H]5O[C@H](CO)[C@@H](O)[C@H](O)[C@H]5O)OC=C[C@@H]34)O[C@@H](C)[C@H](O)[C@H]2O)cc1 (some centres not stated),14
c1ccc(CN2CCN(Cc3ccccc3)C2c2ccco2)cc1,1
Cc1ccc(S(=O)(=O)Nc2cccc3cccnc23)c([N+](=O)[O-])c1,121*
C[C@H]1CN([C@@H](C)CO)C(=O)c2cccc(NS(=O)(=O)c3cn(C)cn3)c2O[C@@H]1CN(C)C(=O)NC1CCCCC1,36
NC(=O)c1ccccc1C(=O)c1ccccc1,8
C[C@H](CO)N1C[C@H](C)[C@@H](CN(C)S(=O)(=O)c2cccs2)Oc2c(NC(=O)c3nc4ccccc4s3)cccc2C1=O,49
CC(C)(C)c1ccc(C(=O)NCCNc2ccccc2[N+](=O)[O-])cc1,33
C[C@H]1CN([C@@H](C)CO)C(=O)Cc2cc(NS(=O)(=O)c3ccccc3)ccc2O[C@H]1CN(C)C,20
C[C@@H]1CN([C@H](C)CO)C(=O)Cc2cc(NC(=O)Cc3ccccc3)ccc2O[C@@H]1CN(C)C(=O)Nc1ccc2c(c1)OCO2,2
C[C@@H]1CN([C@H](C)CO)C(=O)c2cccc(N(C)C)c2O[C@H]1CN(C)Cc1ccc(Cl)c(Cl)c1,88*
Cc1noc(C)c1NC(=O)Nc1ccc2c(c1)CC(=O)N([C@@H](C)CO)C[C@H](C)[C@H](CN(C)Cc1ccc(Oc3ccccc3)cc1)O2,100*
CCc1cc(Br)cc(C)c1NC(=O)CSc1nnc(-c2ccncc2)n1-c1ccccc1,28
C[C@@H]1CCCCO[C@@H](CN(C)S(C)(=O)=O)[C@@H](C)CN([C@H](C)CO)C(=O)c2cc(NC(=O)Cc3ccccc3)ccc2O1,4
CS(=O)(=O)N(CC(=O)Nc1ccc(Br)cc1F)c1ccc(Cl)c(Cl)c1,37
C[C@H]1CN([C@@H](C)CO)C(=O)c2cccc(NC(=O)NC3CCCCC3)c2O[C@H]1CN(C)C(=O)Nc1ccc(C(F)(F)F)cc1,?
Cc1cc(C(=O)Nc2cccc3c2O[C@H](CN(C)C(=O)Nc2c(C)noc2C)[C@@H](C)CN([C@H](C)CO)C3=O)n(C)n1,9
COC(=O)Cn1c(=O)n(Cc2ccco2)c(=O)c2c3c(sc21)CCCC3,6
COc1ccc(NC(=O)N(C)C[C@H]2Oc3c(NC(=O)Nc4cccc5ccccc45)cccc3C(=O)N([C@H](C)CO)C[C@H]2C)cc1,21
C[C@@H]1CN([C@@H](C)CO)C(=O)c2cccc(NC(=O)CCCCCC(=O)Nc3ccccc3N)c2O[C@@H]1CN(C)C,38
Cc1cc(C(=O)Nc2cccc3c2O[C@H](CN(C)Cc2ccc(Oc4ccccc4)cc2)[C@H](C)CN([C@@H](C)CO)C3=O)n(C)n1,2
C[C@H](CO)N1C[C@H](C)[C@H](CN(C)CC2CCCCC2)Oc2ccc(NC(=O)Cn3cnnn3)cc2CC1=O,33
N#CNC(=Nc1ccc(Cl)cc1)Oc1ccccc1,53
C[C@@H]1CCCCO[C@@H](CN(C)C(=O)NC2CCCCC2)[C@@H](C)CN([C@H](C)CO)C(=O)c2cc(NS(=O)(=O)c3ccc(F)cc3)ccc2O1,9
COc1ccc(NC(=O)Nc2ccc3c(c2)CC(=O)N([C@@H](C)CO)C[C@H](C)[C@@H](CN(C)C(=O)NC(C)C)O3)cc1,17
Cc1nn(Cc2ccccc2Cl)c(C)c1NC(=O)C1CC(c2ccc(Cl)cc2)=NO1 (configuration not stated),15
C[C@@H]1CN([C@H](C)CO)C(=O)c2cc(NC(=O)Nc3ccc(F)cc3)ccc2O[C@@H]1CN(C)C(=O)Nc1ccc(F)cc1,-7
Cn1c(SCC(=O)Nc2ccc(S(N)(=O)=O)cc2)nnc1-c1ccccc1Cl,-10
C[C@@H]1CN([C@@H](C)CO)C(=O)Cc2cc(NC(=O)CCN3CCOCC3)ccc2O[C@@H]1CN(C)Cc1ccc(C(=O)Nc2ccccc2N)cc1,29
Cc1cc(C)c(C)c(Oc2coc3cc(OC(=O)CCN4C(=O)c5ccccc5C4=O)ccc3c2=O)c1,31
CC(=C\c1ccccc1)/C(C)=N/O,25
CCOc1ccccc1Nc1nc(N)nc(CSc2nncn2C)n1,19
Cc1noc(C)c1NC(=O)Nc1ccc2c(c1)C(=O)N([C@H](C)CO)C[C@H](C)[C@@H](CN(C)C(=O)Nc1ccc(C(F)(F)F)cc1)O2,23
O=C(NCc1ccco1)c1cnsn1,-11
CNC[C@@H]1Oc2ccc(NC(=O)Nc3ccc(C(F)(F)F)cc3)cc2CC(=O)N([C@@H](C)CO)C[C@@H]1C,-31
Cc1cc(N(CC(=O)Nc2ccc(Cl)cc2C)S(C)(=O)=O)ccc1Br,87*
C[C@H](CO)N1C[C@H](C)[C@@H](CN(C)Cc2ccc(Cl)c(Cl)c2)Oc2c(NC(=O)Nc3ccccc3)cccc2C1=O,59
C[C@H]1CN([C@@H](C)CO)C(=O)Cc2cc(NC(=O)C3CCCCC3)ccc2O[C@H]1CN(C)Cc1ccc(Cl)c(Cl)c1,15
CSc1cccc(NC(=O)CN(c2ccc(F)c(Cl)c2)S(C)(=O)=O)c1,-8
COc1ccc(NC(=O)N(C)C[C@@H]2Oc3ccc(N(C)C)cc3CC(=O)N([C@H](C)CO)C[C@H]2C)cc1,5
Cc1noc(C)c1NC(=O)N(C)C[C@@H]1Oc2ccc(NC(=O)Nc3ccccc3)cc2C(=O)N([C@@H](C)CO)C[C@@H]1C,-14
C[C@H]1CN([C@@H](C)CO)C(=O)c2cccc(NC(=O)C3CCCCC3)c2O[C@@H]1CN(C)S(=O)(=O)c1cccs1,18
C[C@H](CO)N1C[C@H](C)[C@@H](CN(C)Cc2ccc(Cl)c(Cl)c2)Oc2c(NS(=O)(=O)c3ccc(Cl)cc3)cccc2C1=O,18
C[C@H](CO)N1C[C@H](C)[C@@H](CN(C)C(=O)Nc2ccccc2)Oc2c(NS(=O)(=O)c3cn(C)cn3)cccc2C1=O,-6
CCOc1ccc(S(=O)(=O)Nc2nc3ccccc3nc2Nc2ccccc2)cc1,-4
CC(C)NC(=O)Nc1ccc2c(c1)C(=O)N([C@H](C)CO)C[C@H](C)[C@@H](CN(C)S(=O)(=O)c1ccccc1)OCCCC[C@@H](C)O2,9
COc1ccc(OC)c(NC(=O)c2c(NC(=O)c3ccccc3)sc3c2CCC(C)C3)c1 (configuration not stated),12
Cc1ccc([N+](=O)[O-])cc1N(CC(=O)Nc1ccc(Cl)cc1)S(C)(=O)=O,46
C[C@H]1CN([C@@H](C)CO)C(=O)Cc2cc(NC(=O)CCC(F)(F)F)ccc2O[C@@H]1CN(C)C(=O)Nc1ccccc1,0
COc1ccc(Cl)cc1NC(=O)CCCN1C(=O)c2ccccc2C1=O,2
C[C@H]1CN([C@@H](C)CO)C(=O)Cc2cc(NS(=O)(=O)c3ccc(F)cc3)ccc2O[C@@H]1CN(C)Cc1ccc2c(c1)OCO2,44
O=C(CCN1C(=O)c2ccccc2S1(=O)=O)NCc1ccco1,-7
CCOC(=O)c1c(NC(=O)C(C)n2nc(C)c([N+](=O)[O-])c2C)sc(C)c1C (configuration not stated),-1
C[C@@H]1CN([C@@H](C)CO)C(=O)Cc2cc(N(C)C)ccc2O[C@@H]1CN(C)Cc1ccc2c(c1)OCO2,10
# Further entries:
SMILES,NOMO-1 viab
COc1ccc(S(=O)(=O)N(C)C[C@H]2Oc3ccc(NS(=O)(=O)c4ccc(C)cc4)cc3C(=O)N([C@H](C)CO)C[C@H]2C)cc1,6
C[C@@H]1CCCCO[C@@H](CN(C)Cc2ccc(Cl)c(Cl)c2)[C@@H](C)CN([C@H](C)CO)C(=O)c2cc(NC(=O)Nc3ccc4c(c3)OCO4)ccc2O1,42
Cc1cc(NC(=O)c2nn3c(C(F)(F)F)cc(-c4ccccc4)nc3c2Cl)nn1CC(=O)N1CCOCC1,6
C[C@@H]1CN([C@@H](C)CO)C(=O)c2cc(N(C)C)ccc2O[C@H]1CN(C)CC1CCCCC1,-5
C[C@@H]1CN([C@@H](C)CO)C(=O)c2cc(NC(=O)NC3CCCCC3)ccc2O[C@H]1CN(C)Cc1ccccc1,-4
C[C@@H]1CN([C@@H](C)CO)C(=O)c2cc(NC(=O)Nc3ccc(C(F)(F)F)cc3)ccc2O[C@H]1CN(C)Cc1ccc2c(c1)OCO2,59
COc1ccc(OC)c(NC(=O)CC2Sc3ccccc3NC2=O)c1 (configuration not stated),3
CC(C)NC(=O)Nc1cccc2c1O[C@H](CN(C)S(=O)(=O)c1ccc(Cl)cc1)[C@@H](C)CN([C@H](C)CO)C2=O,15
O=C(NCc1ccco1)C1CC(c2ccccc2Cl)=NO1 (configuration not stated),61
Cc1ccc(NC(=O)CSc2nccc(C)n2)cc1,-7
C[C@@H]1CN([C@@H](C)CO)C(=O)Cc2cc(NC(=O)Nc3ccc(F)cc3)ccc2O[C@@H]1CN(C)S(C)(=O)=O,1
C[C@H]1CN([C@@H](C)CO)C(=O)c2cccc(NS(=O)(=O)c3ccc(F)cc3)c2O[C@H]1CN(C)S(=O)(=O)c1ccccc1,12
O/N=C/c1ccc(-c2cc(C(F)(F)F)cc(C(F)(F)F)c2)o1,18
COc1cccc(N(CC(=O)Nc2ccc(OC)c(Cl)c2)S(C)(=O)=O)c1,-6
COc1ccc2c(c1)CCC1C2CCC2(C)C(=O)CCC12 (configuration not stated),24
COc1ccc2c(c1)C(O)(CC(=O)c1ccc3ccccc3c1)C(=O)N2 (configuration not stated),25
CNC[C@@H]1Oc2ccc(NS(=O)(=O)c3ccc(F)cc3)cc2C(=O)N([C@@H](C)CO)C[C@H]1C,-15
C[C@@H]1CCCCO[C@H](CN(C)S(=O)(=O)c2ccccc2)[C@@H](C)CN([C@H](C)CO)C(=O)c2cc(NC(=O)Nc3cccc4ccccc34)ccc2O1,2
C[C@@H]1CN([C@H](C)CO)C(=O)Cc2cc(NC(=O)Nc3ccccc3)ccc2O[C@H]1CN(C)Cc1ccc(Cl)c(Cl)c1,30
C[C@H]1CN([C@@H](C)CO)C(=O)Cc2cc(NC(=O)C3CC3)ccc2O[C@@H]1CN(C)Cc1ccc(Oc2ccccc2)cc1,70
Cc1cc(C(=O)Nc2cccc3c2O[C@@H](CN(C)Cc2ccccc2)[C@@H](C)CN([C@H](C)CO)C3=O)n(C)n1,9
COc1ccc(NC(=O)N(C)C[C@@H]2Oc3c(NC(=O)CCCCCC(=O)Nc4ccccc4N)cccc3C(=O)N([C@H](C)CO)C[C@H]2C)cc1,15
C[C@@H]1CCCCO[C@H](CN(C)CC2CCCCC2)[C@@H](C)CN([C@H](C)CO)C(=O)c2cc(NC(=O)c3ccccc3)ccc2O1,25
C[C@H]1CN([C@@H](C)CO)C(=O)c2cc(NC(=O)Cn3cnnn3)ccc2O[C@@H]1CN(C)C(=O)Nc1ccc2c(c1)OCO2,-11
C[C@@H]1CN([C@H](C)CO)C(=O)Cc2cc(NC(=O)C3CCCCC3)ccc2O[C@@H]1CN(C)Cc1ccc(C(=O)Nc2ccccc2N)cc1,?
C[C@H]1CN([C@@H](C)CO)C(=O)Cc2cc(NC(=O)C3CCCCC3)ccc2O[C@@H]1CN(C)Cc1ccccc1,6

# Entries shown so far containing an aryl methoxy group, in the order listed:
SMILES,NOMO-1 viab
COc1ccc(OC)c(C(=O)CSc2nnc(-c3ccccn3)n2-c2ccc(C)cc2)c1,0
COc1ccc(/C=C/C(=O)O[C@H]2[C@H](OC3C4O[C@]4(CO)[C@H]4C(O[C@@H]5O[C@H](CO)[C@@H](O)[C@H](O)[C@H]5O)OC=C[C@@H]34)O[C@@H](C)[C@H](O)[C@H]2O)cc1 (some centres not stated),14
COc1ccc(NC(=O)N(C)C[C@H]2Oc3c(NC(=O)Nc4cccc5ccccc45)cccc3C(=O)N([C@H](C)CO)C[C@H]2C)cc1,21
COc1ccc(NC(=O)Nc2ccc3c(c2)CC(=O)N([C@@H](C)CO)C[C@H](C)[C@@H](CN(C)C(=O)NC(C)C)O3)cc1,17
COc1ccc(NC(=O)N(C)C[C@@H]2Oc3ccc(N(C)C)cc3CC(=O)N([C@H](C)CO)C[C@H]2C)cc1,5
COc1ccc(OC)c(NC(=O)c2c(NC(=O)c3ccccc3)sc3c2CCC(C)C3)c1 (configuration not stated),12
COc1ccc(Cl)cc1NC(=O)CCCN1C(=O)c2ccccc2C1=O,2
COc1ccc(S(=O)(=O)N(C)C[C@H]2Oc3ccc(NS(=O)(=O)c4ccc(C)cc4)cc3C(=O)N([C@H](C)CO)C[C@H]2C)cc1,6
COc1ccc(OC)c(NC(=O)CC2Sc3ccccc3NC2=O)c1 (configuration not stated),3
COc1cccc(N(CC(=O)Nc2ccc(OC)c(Cl)c2)S(C)(=O)=O)c1,-6
COc1ccc2c(c1)CCC1C2CCC2(C)C(=O)CCC12 (configuration not stated),24
COc1ccc2c(c1)C(O)(CC(=O)c1ccc3ccccc3c1)C(=O)N2 (configuration not stated),25
COc1ccc(NC(=O)N(C)C[C@@H]2Oc3c(NC(=O)CCCCCC(=O)Nc4ccccc4N)cccc3C(=O)N([C@H](C)CO)C[C@H]2C)cc1,15
